VDR inhibitor – Inhibitors of the vitamin D receptor (VDR): qHTS; VDR-SRC2-3 peptide fluorescence polarization, 2 h; Potency, µM, without a hit: max response, negative = inhibition, usual class: inhibitors; hit rate 0.93% among 400,000; AID 504847, 2011; active means well fitted inhibition curve with a large enough effect; inconclusive means small, poorly fitted or top-dose-only effect, or another doubt; inactive means no such curve, though single readings can be large or run the other way; further: series mostly up to about 120 µM
Target sequence (P11473 whole entry, looked up): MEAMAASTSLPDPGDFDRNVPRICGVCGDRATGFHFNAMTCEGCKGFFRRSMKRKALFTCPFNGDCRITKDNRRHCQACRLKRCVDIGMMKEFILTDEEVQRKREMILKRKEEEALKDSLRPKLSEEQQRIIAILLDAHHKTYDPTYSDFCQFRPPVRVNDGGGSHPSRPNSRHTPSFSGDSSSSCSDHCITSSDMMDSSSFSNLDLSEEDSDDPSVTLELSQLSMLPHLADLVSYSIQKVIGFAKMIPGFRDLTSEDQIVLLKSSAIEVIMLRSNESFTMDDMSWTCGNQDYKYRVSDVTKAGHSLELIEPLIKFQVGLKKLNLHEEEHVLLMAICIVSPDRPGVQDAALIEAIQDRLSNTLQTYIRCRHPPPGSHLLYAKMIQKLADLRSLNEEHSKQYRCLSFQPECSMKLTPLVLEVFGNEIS
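Measured by FP: displacement of SRC2-3 coactivator peptide from VDR by library compounds, following a two-hour ambient incubation.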
An asterisk follows results filed as active; ? = inconclusive; & = joins results of further samples. On the % scale 0 is the no-effect control and ±100 the full control effect; potency means the concentration at half of the fitted maximal effect. A portion of the library (hit frequency here may not be typical).

SMILES | VDR inhibitor
Cc1ccc(C)c(NC(=O)c2ccc3c(c2)CCN3S(C)(=O)=O)c1 | 8%
O=C(NCc1cccs1)c1ccc(Cn2c(SCc3ccc(F)cc3)nc3cccnc32)cc1 | 8%
C=CCn1c(SCC(=O)Nc2ccc(C(=O)O)cc2)nc2scc(-c3ccccc3)c2c1=O | -22%
CCC(C)(C)c1nnc(NC(=O)C2CCN(C(=O)c3ccco3)CC2)s1 | 50µM*
Cc1ccc(-c2csc(NC(=O)c3cc([N+](=O)[O-])ccc3N3CCOCC3)n2)cc1 | -14%
COc1ccc(C(=O)N/C(=C\c2ccc(Cl)cc2)C(=O)NCC2CCCO2)cc1 (configuration not stated) | 6%
CN(C)c1ccc(-c2nn3c(C4CCCCC4)nnc3s2)cc1 | 9%
O=C(Nc1ccccc1C(=O)O)c1cc(S(=O)(=O)N2CCCCC2)cs1 | -27%
CCOc1ccc(C(=O)NCCC(=O)NCCCC(=O)O)cc1 | 5%
COc1cccc(-c2nc(NCCN3CCOCC3)c3ccccc3n2)c1O | 9%
Cc1cc(C)c(CC(=O)c2ccccc2)c(C)c1 | 0%
CC(C)CN(C(=O)CCNC(=O)c1ccc(Cl)cc1)C1CCS(=O)(=O)C1 (configuration not stated) | 6%
COc1cc(C(=O)NCCC(=O)NC(C)CCc2ccccc2)cc(OC)c1OC (configuration not stated) | 2%
COc1oc(-c2ccc(Cl)cc2)nc1C(F)(F)F | -2%
CC(C)(C)OC(=O)N1Cc2ccccc2C[C@H]1C(=O)NC1CCCC1 | -15%
Cc1ccc(C(=O)c2cc([N+](=O)[O-])ccc2N2CCOCC2)cc1C | -13%
Cc1ccccc1NC(=O)Cc1nc(COC(=O)CCNS(=O)(=O)c2ccccc2)cs1 | 23%
Cc1cccc(NC(=O)CN2C(=O)C(C)Oc3ccccc32)n1 (configuration not stated) | -11%
CCC(CC)c1nnc(NC(=O)c2cc(-c3ccccc3)nc3ccccc23)s1 | -4%
S=c1[nH]nc(CCSCc2ccccc2)n1-c1ccccc1 | 8%
CCOC(=O)Cc1nnc(NC(=O)CSc2ncc(-c3ccccc3)nn2)s1 | 1%
Cc1cc(-c2n[nH]c(=S)n2/N=C/c2ccco2)n[nH]1 | -5%
COc1ccc(-n2c(COc3ccc(C)cc3)nnc2SCc2ccc(C#N)cc2)cc1 | -1%
O=C(NC1CCSc2ccccc21)c1ccccc1F (configuration not stated) | -1%
COc1ccc(-n2c(=O)c(-c3ccccc3)nc3cnc(N4CCN(C)CC4)nc32)cc1 | -1%

For reference, part of the list above.
SMILES | VDR inhibitor
O=C(Nc1ccccc1C(=O)O)c1cc(S(=O)(=O)N2CCCCC2)cs1 | -27%
CCOc1ccc(C(=O)NCCC(=O)NCCCC(=O)O)cc1 | 5%
COc1cccc(-c2nc(NCCN3CCOCC3)c3ccccc3n2)c1O | 9%
Cc1cc(C)c(CC(=O)c2ccccc2)c(C)c1 | 0%
CC(C)CN(C(=O)CCNC(=O)c1ccc(Cl)cc1)C1CCS(=O)(=O)C1 (configuration not stated) | 6%
COc1cc(C(=O)NCCC(=O)NC(C)CCc2ccccc2)cc(OC)c1OC (configuration not stated) | 2%
COc1oc(-c2ccc(Cl)cc2)nc1C(F)(F)F | -2%
CC(C)(C)OC(=O)N1Cc2ccccc2C[C@H]1C(=O)NC1CCCC1 | -15%
Cc1ccc(C(=O)c2cc([N+](=O)[O-])ccc2N2CCOCC2)cc1C | -13%
Cc1ccccc1NC(=O)Cc1nc(COC(=O)CCNS(=O)(=O)c2ccccc2)cs1 | 23%
Cc1cccc(NC(=O)CN2C(=O)C(C)Oc3ccccc32)n1 (configuration not stated) | -11%
CCC(CC)c1nnc(NC(=O)c2cc(-c3ccccc3)nc3ccccc23)s1 | -4%
S=c1[nH]nc(CCSCc2ccccc2)n1-c1ccccc1 | 8%
CCOC(=O)Cc1nnc(NC(=O)CSc2ncc(-c3ccccc3)nn2)s1 | 1%
Cc1cc(-c2n[nH]c(=S)n2/N=C/c2ccco2)n[nH]1 | -5%

Continuation.
SMILES | VDR inhibitor
Cc1onc(-c2ccccc2)c1NC(=O)Nc1ccc(OC(F)F)cc1 | -2%
Cc1[nH]c2ccccc2c1SCCNC(=O)c1ccc(Br)o1 | -3%
COCCN=C1Sc2nc3ccc(C)cc3cc2CN1Cc1ccco1 | -13%
CCOc1ncccc1C(=O)OCc1ccc(Cl)cc1 | 4%
COc1cccc(C2C(C#N)=C(N)N(N(C)C)C3=C2C(=O)CCC3)c1 (configuration not stated) | -1%
COc1cc(CN(C(=O)c2ccccc2F)C2CCS(=O)(=O)C2)cc(OC)c1OC (configuration not stated) | -11%
COc1cc(CNc2ccc3[nH]c(=O)[nH]c3c2)ccc1OCc1ccccc1C | -7%
O=C1C=CC(=O)N1Cc1cccnc1 | 0%
O=C(NC1=NCCS1)c1ccc(Cl)cc1 | -10%
COc1ccc(CCC(=O)NCCNC(=O)CCc2ccc(OC)cc2)cc1 | -11%
CN(Cc1ccccc1)S(=O)(=O)c1ccc(NC(=O)C2CCCO2)cc1 (configuration not stated) | 16%
CC1=C(C(=O)OCc2ccccc2)C(c2cccc(Br)c2)NC(=O)N1 (configuration not stated) | -17%
CC(=O)c1ccc(NC(=S)NCCCn2ccnc2)cc1 | -13%
COc1cc2nc(N(C)CCCNC(=O)[C@@H]3CCCO3)nc(N)c2cc1OC | -5%
Cc1ccc(C(=O)O/N=C(\N)c2ccc(C(F)(F)F)cn2)cc1 | 17%
CCOC(=O)C1=C(CN2CCOCC2)NC(=O)NC1c1cccc([N+](=O)[O-])c1 (configuration not stated) | -6%
O=S(=O)(NCc1cccnc1)c1ccc(Cl)c2ccccc12 | 22%
COc1ccc(C(=O)NC(C)c2nnc(SCC(=O)NC3=NCCS3)n2C)cc1 (configuration not stated) | 9%
CC[C@@]1([C@@H]2O[C@@H]([C@H]3O[C@@](O)(CO)[C@H](C)C[C@@H]3C)C[C@@H]2C)CC[C@H]([C@]2(C)CC[C@]3(C[C@H](O)[C@@H](C)[C@@H]([C@@H](C)[C@@H](OC)C(C)C(=O)O)O3)O2)O1 (some centres not stated) | 4%
CCn1c(C)c(C)c2cc(C(=O)NCCCN3CCN(C)CC3)ccc21 | 9%
COc1ccc(S(=O)(=O)Nc2ccccn2)cc1 | -3%
CCS(=O)(=O)c1nc(S(=O)(=O)c2ccc(Cl)cc2)c(N2CCC3(CC2)OCCO3)s1 | -2%
CCN(CC)S(=O)(=O)c1cccc(NC(=O)COC(=O)/C=C/c2cccs2)c1 | -6%
CCCc1nc(SC)[nH]c(=O)c1C | -6%
CC1CCCC(C)N1C(=O)COC(=O)CCC1CCCC1 (configuration not stated) | 10%

Continued:
SMILES | VDR inhibitor
Cc1ccc(SCC(=O)NCc2ccc(F)cc2)cc1 | 11%
CCc1cc2c(=O)n(Cc3ccccc3)c(SC3CCOC3=O)nc2s1 (configuration not stated) | -1%
COC(=O)c1cn(CC(=O)NC2CCCCC2)c2ccccc12 | 15%
CN(C)S(=O)(=O)c1cccc(NC(=O)CSc2nncn2-c2ccccc2)c1 | 2%
O=[N+]([O-])C(/C=C(\Cl)[N+](=O)[O-])=C(N1CCCCC1)N1CCCCC1 | -18%
COc1ccc(NC(=O)CN(C)CC(=O)c2c(C)[nH]c3ccccc23)cc1 | -8%
CN(C(=O)COC(=O)c1ccccc1C(=O)N(C)c1ccccc1)c1ccccc1 | 1%
COc1cccc(CN(C)C(=O)c2cc(-c3ccc(F)cc3)nc3ccccc23)c1 | -21%
Cc1ccc(NC(=O)Cn2cc(S(=O)(=O)c3ccc(F)cc3)c(=O)c3cc4c(cc32)OCO4)cc1 | -15%
CON(C)c1nc(Oc2ccc(=O)[nH]n2)nc(N(C)C)n1 | -8%
COc1ccc(C(=O)C(C)OC(=O)CNC(=O)C2CCCCC2)cc1 (configuration not stated) | 11%&-4%
COc1ccc(/C=C(/NC(=O)c2ccccc2OC)C(=O)Nc2ccc(C(=O)O)cc2)cc1 | -10%
Cc1cccc(N2CCN(C(=O)Cn3c(=O)c4cccn4c4ccc(F)cc43)CC2)c1C | 1%
COc1ccccc1CNC(=O)c1ccc2nc(-c3ccccc3)c(-c3ccccc3)nc2c1 | 11%
COc1cc([C@@H]2CC=C(C(=O)O)[C@H](c3ccc(C)cc3)N2S(=O)(=O)c2ccc(C)cc2)cc(OC)c1OC | -5%
Cc1occc1-c1nnc(SCC(=O)Nc2nccs2)n1CCc1ccccc1 | -7%
Cc1ccc(C)c(S(=O)(=O)N2CCN(C(=O)c3ccc(C)s3)CC2)c1 | -14%
CCN(CC)S(=O)(=O)c1ccc(NS(=O)(=O)c2ccc3oc(=O)[nH]c3c2)cc1 | 7%
CN(CC(=O)NCCc1ccc(F)cc1)CC(=O)Nc1ccc(F)c(F)c1F | -10%
COc1ccc(NC(=O)Cc2nnc(SCC(=O)NC3=NCCS3)n2C)cc1 | -18%
c1cnc2ccc3c(c2c1)COCO3 | -14%
Cc1ccc(NC(=O)c2sc3nc(N4CCOCC4)c4c(c3c2N)CC(C)(C)OC4)cc1 | 8%
CCNC(=O)CN(c1ccc(OC)c(OC)c1)S(=O)(=O)c1ccccc1 | 1%
CCOC(=O)COc1ccc(Oc2nc(C)cc(OC)n2)nn1 | -5%
O=C(Cn1c(CO)nc2ccccc21)Nc1ccccc1Cl | 5%

The listing continues:
SMILES | VDR inhibitor
CCCCN(c1ccccc1)S(=O)(=O)c1cc2c3c(c1)C(C)C(=O)N3CCC2 (configuration not stated) | 11%
COc1cc(C2c3[nH]c4ccccc4c3CCN2Cc2cn(C)nc2C)ccc1F (configuration not stated) | 13%
CN1/C(=C\C=C2/SC(=S)N(CC(=O)O)C2=O)C(C)(C)c2ccccc21 | 0%
O=C1CC(c2cccc(Br)c2)C2=C(COC2=O)N1 (configuration not stated) | -9%
COc1ccc(Cc2c(N)nc(C)nc2N)cc1 | 10%
CCOc1ccc(/C(CCC(=O)O)=N/NC(=S)NC(C)C)cc1 | -6%
O=C(Nc1ccc(N2CCN(C(=O)c3ccco3)CC2)cc1)c1ccccc1Br | 7%
Cc1ccc(O)c(NC(=O)c2noc(C(C)C)c2[N+](=O)[O-])c1 | -8%
C/C(=N\NC(=S)NC1CCCCC1)c1ccc(C#N)cc1 | 1%
Cc1ccc(CCNC(=O)c2cc3c(s2)-c2ccccc2OC3)cc1 | -2%
COc1cc(CNCc2cc(OC)c(OC)c(OC)c2)cc(OC)c1 | -10%
CCCCN(C(=O)c1ccc([N+](=O)[O-])o1)c1c(N)n(CCCC)c(=O)[nH]c1=O | -3%
O=C(NC(=O)N1CCOCC1)c1ccccc1 | -8%
Fc1cc(F)c(NC(=S)N2CCOCC2)c(F)c1 | -4%
CCCCN(CC)C(=O)CSc1nc2ccccc2c(=O)n1Cc1ccco1 | 17%
COc1ccccc1CCNS(=O)(=O)c1ccc(C(=O)O)n1C | 25%
CCOC(=O)c1c(-c2ccccc2)csc1NC(=O)c1ccc(S(=O)(=O)N2CC(C)OC(C)C2)cc1 (configuration not stated) | -6%
CCCCC1=CC2=C(c3ccco3)C(=O)C(C)(OC(=O)c3ccc(Cl)nc3)C(=O)C2=CO1 (configuration not stated) | ?
CCOc1c(Cl)cc(CNc2nnnn2C)cc1OC | -6%
CC1(C)CC(=O)C(C(c2ccccc2F)C2C(=O)CC(C)(C)CC2=O)C(=O)C1 | ?
Cc1ccc(C(=O)Nc2ccc(N3CCOCC3)nc2N2CCOCC2)cc1 | -4%
Cc1cccc(C)c1-n1cccc1/C=C1\SC(=S)N(c2cccc(C(=O)O)c2)C1=O | ?
CCCCc1ccc(NC(=S)N2CCN(C(=O)c3ccco3)CC2)cc1 | -9%
COCCCn1c(SCc2cccc(OC)c2)nc2cc(OC)c(OC)cc2c1=N | 3%
Cc1ccc2c(c1)CCCN2C(=O)Nc1ccc2c(c1)OCO2 | ?

Single values from the entries so far.
Reading of S=c1[nH]nc(CCSCc2ccccc2)n1-c1ccccc1 under VDR inhibitor: 8%
Reading of CCCCN(c1ccccc1)S(=O)(=O)c1cc2c3c(c1)C(C)C(=O)N3CCC2 (configuration not stated) under VDR inhibitor: 11%

Carrying on.
SMILES | VDR inhibitor
CCOc1ccc2nc(/N=C/c3nc(-c4ccc(Br)cc4)oc3O)sc2c1 | -3%
CCCc1cc(=O)[nH]c(SCC(=O)NCCN2C(=O)CSC2=O)n1 | -21%
O=C(CCN1C(=O)c2cccc([N+](=O)[O-])c2C1=O)NC1CCCCCC1 | 6%
Clc1ccccc1C1CC(c2ccccc2)Nc2ncnn21 (configuration not stated) | -16%
Cc1ccc(OCC(=O)N2N=C(C(F)(F)F)CC2(O)C(C)(C)C)cc1C (configuration not stated) | -13%
COc1ccc(NC(=O)CSc2nnc(-c3cnccn3)n2C)cc1OC | 17%
COc1ccc(S(=O)(=O)N2CCOCC2)cc1NC(=O)CCCOc1ccccc1 | -20%
O=C(CCn1nc(-c2ccc(Cl)cc2)c2ccccc2c1=O)NN1CCOCC1 | -19%
CCN(CC)CCC(c1ccc(N(C)C)cc1)c1c(OC)cc(OC)c2c1OC(=O)CC2c1ccc(OC)cc1 (configuration not stated) | 0%
CCNc1ncc2nc(-c3ccc(F)cc3)c(=O)n(CCOC)c2n1 | -3%
CN1C(=O)/C(=C2\SC(=S)N(CCCCCC(=O)O)C2=O)c2ccccc21 | -9%
COC(=O)C(C(=O)Nc1cccc(C)n1)C1CCCCCC1 (configuration not stated) | 6%
COc1cc(C(=O)Nc2cccc(-c3cn4cccnc4n3)c2)cc(OC)c1OC | 11%
COc1ccc(CCNC(=O)c2ccc(Cn3c(SCC(=O)NCCC(C)C)nc4cc5c(cc4c3=O)OCO5)cc2)cc1OC | 11%
COc1ccc(CN2CCCC(C(=O)c3cccc(OC(C)C)c3)C2)cc1Cn1cccn1 (configuration not stated) | -10%
CCC(C)NC(=O)Cn1c(=O)n(Cc2ccc(C(=O)NCc3ccc(C)cc3)cc2)c(=O)c2ccccc21 (configuration not stated) | -25%

Source: PubChem
